MLL AF4-AF9 inh – inhibitors of AF4 peptide binding to AF9, primary screen, biochemical, AlphaScreen, biotin-AF4 peptide, FLAG-AF9, single point; Protein AF-9 (Homo sapiens), P42568; 350,000 tested, 0.47% active; inhibition, % at 10 µM;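 active = every replicate reaching a set inhibition limit, whatever the replicate mean, cut at about 25% in these data; inconclusive = mean inhibition reaches that limit but some replicates miss it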;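 note: 0% = plate neutral control median and 100% = total signal loss; the record names both 10 and 1 µM as test concentration; the first replicate is given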
Target sequence (P42568 whole entry, looked up): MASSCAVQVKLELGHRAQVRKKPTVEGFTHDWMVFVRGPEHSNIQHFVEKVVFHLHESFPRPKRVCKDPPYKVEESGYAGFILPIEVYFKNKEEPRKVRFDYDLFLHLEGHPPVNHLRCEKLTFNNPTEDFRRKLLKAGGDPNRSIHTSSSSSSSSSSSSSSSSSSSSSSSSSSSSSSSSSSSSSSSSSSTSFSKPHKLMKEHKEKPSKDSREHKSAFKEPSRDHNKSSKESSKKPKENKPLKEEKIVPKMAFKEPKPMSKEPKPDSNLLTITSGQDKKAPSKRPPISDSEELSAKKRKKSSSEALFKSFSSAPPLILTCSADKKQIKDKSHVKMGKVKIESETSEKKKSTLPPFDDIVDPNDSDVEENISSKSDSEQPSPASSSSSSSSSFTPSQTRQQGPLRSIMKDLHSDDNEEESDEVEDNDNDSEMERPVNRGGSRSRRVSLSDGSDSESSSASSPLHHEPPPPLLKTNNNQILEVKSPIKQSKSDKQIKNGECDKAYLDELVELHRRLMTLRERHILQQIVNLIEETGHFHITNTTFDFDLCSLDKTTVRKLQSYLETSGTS
* marks the source's active call; other numbers are inactive results; ? = inconclusive; & = joins results of further samples. Not all compounds are listed; rates above refer to the full screens.

MLL AF4-AF9 inh,SMILES
0.1,C[C@H]1CN([C@@H](C)CO)S(=O)(=O)c2ccc(Br)cc2O[C@H]1CN(C)C(=O)CC1CC1
-0.3,COCCN1C(=O)[C@H]2C[C@@]13O[C@H](c1ccccn1)N=C3CC1c3ccccc3C[C@@]12C (some centres undefined)
-6.7,O=C(Nc1ccccc1F)N1CC(=O)N2[C@@H](CO)[C@H](c3ccc(C#Cc4ccccc4)cc3)[C@@H]2C1
-2.7,CO[C@H]1CN(C)C(=O)c2cc(NC(=O)C3CC3)ccc2OC[C@@H](C)N(CCC(F)(F)F)C[C@H]1C
-0.5,CCCNC(=O)N1CC2(C1)[C@@H](c1ccccc1)[C@H](CO)N2CC1CC1
4.4,O=S(=O)(c1cccs1)N1CCCCN2[C@@H](CO)[C@@H](c3ccc(-c4ccccc4)cc3)[C@@H]2C1
1.8,CC(=O)NC[C@@H]1[C@@H](c2ccc(-c3ccccc3F)cc2)[C@@H](CO)N1C(C)=O
3.9,COc1cccc(-c2ccc([C@@H]3[C@@H](CO)N4C(=O)CN(C(=O)C5CC5)C[C@H]34)cc2)c1
-2.2,CCCNC(=O)N(C)C[C@@H]1Oc2cc(C#CCOC)ccc2S(=O)(=O)N([C@@H](C)CO)C[C@H]1C
0.8,CS(=O)(=O)Nc1ccc2c(c1)[C@H]1C[C@@H](CC(=O)NCc3ccccc3)O[C@H](CO)[C@H]1O2
-0.7,COCC(=O)N1[C@H](C#N)[C@@H](c2ccc(-c3cccnc3)cc2)[C@@H]1CO
-3.3,CC(C)NC(=O)N(C)C[C@@H]1OCc2ccccc2-c2c(n(C)c3ccccc23)C(=O)N([C@@H](C)CO)C[C@H]1C
7.0,Cc1ccc(S(=O)(=O)N(C)C[C@H]2Oc3c(cccc3N(C)C)C(=O)N([C@@H](C)CO)C[C@H]2C)cc1
-7.4,CCNC(=O)C[C@H]1CC[C@@H]2[C@H](COc3ccc(NC(=O)C4CCCCC4)cc3C(=O)N2C)O1
-0.4,COc1ccc(CNCCS(=O)(=O)NC2CCCCC2)cc1

5 compounds already listed, arranged by SMILES length, low to high.
MLL AF4-AF9 inh,SMILES
-0.7,COCC(=O)N1[C@H](C#N)[C@@H](c2ccc(-c3cccnc3)cc2)[C@@H]1CO
1.8,CC(=O)NC[C@@H]1[C@@H](c2ccc(-c3ccccc3F)cc2)[C@@H](CO)N1C(C)=O
0.1,C[C@H]1CN([C@@H](C)CO)S(=O)(=O)c2ccc(Br)cc2O[C@H]1CN(C)C(=O)CC1CC1
3.9,COc1cccc(-c2ccc([C@@H]3[C@@H](CO)N4C(=O)CN(C(=O)C5CC5)C[C@H]34)cc2)c1
-2.7,CO[C@H]1CN(C)C(=O)c2cc(NC(=O)C3CC3)ccc2OC[C@@H](C)N(CCC(F)(F)F)C[C@H]1C

Remaining list, next part.
MLL AF4-AF9 inh,SMILES
-0.3,COc1ccccc1NC(=O)N[C@H]1C=C[C@@H](CC(=O)N[C@@H](C)c2ccccc2)O[C@@H]1CO
1.0,Cc1ccc(S(=O)(=O)N(C)C[C@H]2OCCCC[C@H](C)Oc3ccc(NC(=O)Cc4ccccc4)cc3C(=O)N([C@H](C)CO)C[C@@H]2C)cc1
-1.2,CO[C@@H]1CN(C)C(=O)c2cc(NS(C)(=O)=O)ccc2OC[C@H](C)N(C(=O)C2CCOCC2)C[C@H]1C
19.4&-1.3,COc1cccc(CN2C[C@@H]3N[C@H](C2)C3c2ccc(-c3cccc(C#N)c3)cc2)c1 (some centres undefined)
-7.8,CCCN1[C@H](C(=O)N2CCOCC2)[C@@H](CO)[C@@H]2Cn3c(ccc(-c4ccccc4F)c3=O)[C@@H]21
38.2*,O=C(NC1CCCCC1)N[C@@H]1C=C[C@@H](CC(=O)N2CCOCC2)O[C@@H]1CO
-1.9,CCCCCCCCNS(=O)(=O)CCNCCCC
-2.8,C[C@H](CO)N1C[C@H](C)[C@H](CN(C)Cc2ccc(C(=O)O)cc2)OCc2ccccc2-c2ccccc2C1=O
3.6,O=C(CN1CCOCC1)N1CC[C@@H]2[C@H](CO)Nc3ccc(-c4ccccc4)cc3[C@@H]21
-1.3,C/C=C/c1ccc2c(c1)O[C@@H](CN(C)C(=O)Cc1cccnc1)[C@@H](C)CN([C@@H](C)CO)S2(=O)=O
0.0,Cc1noc(C)c1S(=O)(=O)N(C)C[C@@H]1Oc2c(NS(=O)(=O)c3cn(C)cn3)cccc2C(=O)N([C@H](C)CO)C[C@@H]1C
-6.8,C[C@@H]1CCCCO[C@@H](CN(C)S(=O)(=O)c2ccc(Cl)cc2)[C@@H](C)CN([C@H](C)CO)C(=O)c2cc(NC(=O)c3ccccc3)ccc2O1
-3.0,COc1ccc(S(=O)(=O)N[C@H]2CC[C@@H](CC(=O)NCCc3ccncc3)O[C@H]2CO)cc1
2.4,C[C@@H]1CCCCO[C@@H](CN(C)Cc2ccc(C(F)(F)F)cc2)[C@@H](C)CN([C@@H](C)CO)C(=O)c2cc(NS(=O)(=O)c3ccc(F)cc3)ccc2O1
-0.4,COc1ccc(NC(=O)N(C)C[C@H]2Oc3ncc(C#C[C@H](C)O)cc3C(=O)N([C@@H](C)CO)C[C@@H]2C)cc1

Continuation.
MLL AF4-AF9 inh,SMILES
4.1,C[C@@H]1CN([C@H](C)CO)S(=O)(=O)c2ccc(C#CC3(O)CCCC3)cc2O[C@@H]1CN(C)C(=O)c1cccnc1
-0.1,COc1ccc(NC(=O)Nc2ccc3c(c2)[C@@H]2C[C@@H](CC(=O)NCc4ccccc4F)O[C@@H](CO)[C@@H]2O3)cc1
3.8,Cc1ccc(-c2cnc3c(c2)C(=O)N([C@H](C)CO)C[C@H](C)[C@@H](CN(C)C(=O)c2cccnc2)O3)cc1
-11.4,CO[C@@H]1CN(C)C(=O)c2cc(NC(C)=O)ccc2OC[C@H](C)N(C(=O)c2ccccn2)C[C@H]1C
-1.2,COc1cccc(C(=O)Nc2ccc3c(c2)OC[C@@H](C)N(C(=O)C2CCOCC2)C[C@@H](C)[C@H](OC)CN(C)C3=O)c1
3.6,CO[C@H]1CN(C)C(=O)c2cc(NC(=O)Nc3cccc(F)c3)ccc2OC[C@@H](C)N(C(C)=O)C[C@H]1C
0.3,CC(C)NC(=O)N(C)C[C@@H]1Oc2ncc(C#Cc3ccc(F)cc3)cc2C(=O)N([C@@H](C)CO)C[C@@H]1C
2.2,COc1ccc(NC(=O)Nc2ccc3c(c2)CC(=O)N([C@H](C)CO)C[C@H](C)[C@@H](CN(C)S(=O)(=O)c2ccc(C)cc2)O3)cc1
-2.7,C[C@H](CO)N1C[C@H](C)[C@@H](CN(C)Cc2ccc(C(=O)Nc3ccccc3N)cc2)Oc2ccc(NC(=O)NC3CCCCC3)cc2CC1=O
7.5,COc1cccc(S(=O)(=O)N[C@@H]2CC[C@H](CCNC(=O)Nc3cc(F)ccc3F)O[C@H]2CO)c1
-0.7,CN(C)c1cccc(CNC(=O)c2csc([C@@H]3C[C@H](O)[C@@H](CO)O3)n2)c1
3.6,C[C@H]1CN([C@@H](C)CO)C(=O)Cc2cc(NC(=O)Nc3ccc4c(c3)OCO4)ccc2O[C@H]1CN(C)C
1.2,COc1cccc(-c2cnc3c(c2)C(=O)N([C@H](C)CO)C[C@H](C)[C@@H](CN(C)C(=O)Nc2ccccc2F)O3)c1
5.7,C[C@H](CO)N1C[C@H](C)[C@H](CN(C)C(=O)Nc2ccc(F)cc2)Oc2c(NC(=O)c3nc4ccccc4s3)cccc2C1=O
6.9,Cc1c(NC(=O)CSc2nnc(C(C)N(C)C)n2-c2ccccc2)c(=O)n(-c2ccccc2)n1C (centres undefined)

Reformatted with each value named: entries from further up.
C[C@H]1CN([C@@H](C)CO)C(=O)Cc2cc(NC(=O)Nc3ccc4c(c3)OCO4)ccc2O[C@H]1CN(C)C
  MLL AF4-AF9 inh: 3.6

COc1cccc(-c2cnc3c(c2)C(=O)N([C@H](C)CO)C[C@H](C)[C@@H](CN(C)C(=O)Nc2ccccc2F)O3)c1
  MLL AF4-AF9 inh: 1.2

C[C@H](CO)N1C[C@H](C)[C@H](CN(C)C(=O)Nc2ccc(F)cc2)Oc2c(NC(=O)c3nc4ccccc4s3)cccc2C1=O
  MLL AF4-AF9 inh: 5.7

Cc1c(NC(=O)CSc2nnc(C(C)N(C)C)n2-c2ccccc2)c(=O)n(-c2ccccc2)n1C (centres undefined)
  MLL AF4-AF9 inh: 6.9

The list continues.
MLL AF4-AF9 inh,SMILES
-0.8,C[C@H](O)C#Cc1cnc2c(c1)C(=O)N([C@H](C)CO)C[C@@H](C)[C@H](CN(C)C(=O)c1ccccc1F)O2
0.1,O=C(CN1CCN(S(=O)(=O)c2ccc(Br)s2)CC1)NC1CCCCC1
-4.0,Cc1cc(C(=O)Nc2cccc3c2O[C@@H](CN(C)C(=O)Nc2ccc4c(c2)OCO4)[C@H](C)CN([C@H](C)CO)C3=O)n(C)n1
-1.2,N#C[C@H]1[C@H](c2ccc(C#CC3CCCC3)cc2)[C@H](CO)N1S(=O)(=O)c1ccccc1
0.3,CCCNC(=O)Cc1ccc(N)cc1
-1.2,CC(C)NC(=O)N[C@@H]1CC[C@@H](CCNS(=O)(=O)Cc2ccccc2)O[C@@H]1CO
-2.5,C/C=C/c1cnc2c(c1)C(=O)N([C@@H](C)CO)C[C@H](C)[C@@H](CN(C)C(=O)NC1CCCCC1)O2
-2.2,C[C@H](CO)N1C[C@H](C)[C@H](CN(C)C(=O)Nc2cccc3ccccc23)Oc2ncc(C#Cc3ccc(F)cc3)cc2C1=O
-3.4,CCCNC(=O)C[C@@H]1CC[C@H]2[C@@H](COC[C@@H](O)CN2Cc2ccccc2F)O1
0.3,O=C(CN1CCN(C(=O)c2ccco2)CC1)Nc1cc(S(=O)(=O)N2CCCC2)ccc1Cl
-6.3,CC(C)NC(=O)N(C)C[C@@H]1Oc2ccc(NC(=O)CCCN(C)C)cc2CC(=O)N([C@@H](C)CO)C[C@H]1C
-1.0,CCN(CC)C(=O)c1ccc2sc([C@H]3C[C@H](O)[C@@H](CO)O3)nc2c1
?,CCCN(C)C[C@H]1OCCCC[C@@H](C)Oc2ccc(NC(=O)Nc3ccc4c(c3)OCO4)cc2C(=O)N([C@H](C)CO)C[C@@H]1C
2.4,COc1cc(OC)cc(C(=O)N2CCN(C3CCC(C)CC3)CC2)c1 (centres undefined)
-0.6,O=C(CCN1CCCCC1)N[C@@H]1CC[C@H](CCn2cc(-c3ccccc3)nn2)O[C@H]1CO

Remaining list, next part
MLL AF4-AF9 inh,SMILES
-1.2,C[C@@H]1CCCCO[C@@H](CN(C)S(=O)(=O)c2ccccc2)[C@@H](C)CN([C@@H](C)CO)C(=O)c2cc(NS(=O)(=O)c3ccc(Cl)cc3)ccc2O1
-1.0,O=C(Nc1nccs1)c1csc([C@H]2C[C@H](O)[C@@H](CO)O2)n1
-2.9,COCCNC(=O)C[C@H]1CC[C@H]2[C@@H](COC[C@@H](O)CN2Cc2ccc(Cl)c(Cl)c2)O1
-0.5,C[C@@H]1CN([C@H](C)CO)S(=O)(=O)c2ccc(C#Cc3ccccn3)cc2O[C@H]1CN(C)C
-2.3,C[C@@H]1CN([C@@H](C)CO)C(=O)c2cc(NS(C)(=O)=O)ccc2O[C@H]1CN(C)Cc1ccc(C(=O)O)cc1
-0.3,CCCNC(=O)N1[C@H](C#N)[C@H](c2ccccc2)[C@@H]1CO
0.9,C[C@H]1CN([C@@H](C)CO)C(=O)c2cccc(NC(=O)NC3CCCCC3)c2O[C@@H]1CN(C)Cc1ccncc1
1.9,Cc1ccc(CN2CC(=O)N3[C@H](CO)[C@H](c4ccc(-c5ccccc5F)cc4)[C@@H]3C2)cc1
1.3,C[C@@H]1CN([C@H](C)CO)S(=O)(=O)c2ccc(-c3ccc(F)cc3)cc2O[C@@H]1CN(C)C(=O)C1CCCCC1
2.5,COc1ccc(NC(=O)N(C)C[C@H]2Oc3ccc(NC(=O)Nc4cccc5ccccc45)cc3C(=O)N([C@@H](C)CO)C[C@@H]2C)cc1
12.5,Cc1ccccc1-c1ccc2c(c1)O[C@@H](CN(C)Cc1ccncc1)[C@H](C)CN([C@H](C)CO)S2(=O)=O
11.7,Cc1cccc(CN(C)C[C@@H]2Oc3ncc(/C=C/c4ccccc4)cc3C(=O)N([C@H](C)CO)C[C@@H]2C)c1
-1.9,CCC(=O)N1[C@@H]2c3ccc(-c4ccccc4)c(=O)n3C[C@H]1[C@H](CO)[C@H]2C(=O)N1CCCCC1
-0.5,CC(=O)N1[C@@H]2c3ccc(/C=C/c4ccccc4)c(=O)n3C[C@H]1[C@H](CO)[C@H]2C(=O)N(C)C
-0.5,CC(C)NC(=O)N(C)C[C@H]1Oc2c(NC(=O)NC3CCCCC3)cccc2C(=O)N([C@@H](C)CO)C[C@@H]1C

Next results
MLL AF4-AF9 inh,SMILES
1.9,COCCNC(=O)C1(C)CCCN(Cc2cc(-c3ccccc3)nn2C)C1 (centres undefined)
1.2,CCNC(=O)C1(C)CCN(C(=O)c2ccc(N(C)C)cc2)C1 (centres undefined)
3.2,COc1ccc(-c2ccc3c(n2)CCCN3S(=O)(=O)c2c(C)noc2C)cc1
1.5,COc1ccccc1C#Cc1cnc2c(c1)C(=O)N([C@H](C)CO)C[C@H](C)[C@@H](CN(C)C(=O)CC1CC1)O2
0.2,Cc1cccc(S(=O)(=O)NC(=O)C2(C)CCN2C(=O)c2ccccc2CCc2ccccc2)c1 (centres undefined)
5.9,COc1ccc(NC(=O)Nc2cccc3c2O[C@H](CN(C)S(=O)(=O)c2ccccc2)[C@H](C)CN([C@H](C)CO)C3=O)cc1
-2.1,COc1ccc(S(=O)(=O)N(C)C[C@@H]2OCCCC[C@@H](C)Oc3ccc(NS(=O)(=O)c4cn(C)cn4)cc3C(=O)N([C@H](C)CO)C[C@H]2C)cc1
9.2,C[C@H]1CCCCO[C@H](CN(C)C(=O)Nc2ccc3c(c2)OCO3)[C@@H](C)CN([C@@H](C)CO)C(=O)c2cc(NC(=O)CCCN(C)C)ccc2O1
5.6,COc1ccc(S(=O)(=O)Nc2ccc3c(c2)C(=O)N([C@@H](C)CO)C[C@H](C)[C@@H](CN(C)C(=O)Nc2ccc4c(c2)OCO4)OCCCC[C@H](C)O3)cc1
-0.3,C[C@@H]1CCCCO[C@@H](CN(C)S(=O)(=O)c2cn(C)cn2)[C@H](C)CN([C@H](C)CO)C(=O)c2cc(NC(=O)NC3CCCCC3)ccc2O1
